Arbovirus inh: arbovirus infection inhibition. arbovirus infection cell-based antiviral screen. inhibition, % at 10 µM. actives 0.37% (n = 200,000). AID 1251;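 active = inhibition from about 30%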;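 also: bluetongue infection of BSR cells; cell survival read as ATP light after 72 h; 0% = infected wells without compound and 100% = uninfected wells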
Mtb growth: M. tuberculosis H37Rv growth inhibitors, H37Rv strain (AID 1626); M. tuberculosis H37Rv growth inhibition; higher % means a stronger effect; actives 0.95% (n = 220,000); one-dose inhibition, % at 10 µM; IC50 in µM for titrated hits;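 active = confirmed in a dose series; inconclusive = inhibition above 80% but not taken into the dose series; inactive = below 80% or under 30% at every dose of the series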;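 also: bacteria incubated seven days before Alamar blue readout; 0% = bacteria only wells and 100% = bacteria with antibiotic wells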
YopH PTP inh: blocks Yersinia enterocolitica YopH tyrosine phosphatase; inhibition, %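 (about 10 µM by stock and volumes)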; actives 0.16% (n = 140,000); fluorescence Ex485/Em525;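 active = inhibition of 50% or more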;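 also: controls were vehicle for no effect and minimum signal wells for full effect; inactives centre near -20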
RecA splice inh: inhibitors of M. tuberculosis RecA intein splicing | P9WHJ3 | cell-free RecA intein splicing, fluorescence | inhibition, %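 (about 9 µM by stock and volumes)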 | actives 0.75% (n = 290,000) | AID 2221; in the data active = inhibition above about 30%; inconclusive = no clear call, values can overlap the other calls;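 also: 0% = vehicle wells and 100% = reference inhibitor control wells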
Target sequence (P9WHJ3 whole entry, looked up, canonical isoform): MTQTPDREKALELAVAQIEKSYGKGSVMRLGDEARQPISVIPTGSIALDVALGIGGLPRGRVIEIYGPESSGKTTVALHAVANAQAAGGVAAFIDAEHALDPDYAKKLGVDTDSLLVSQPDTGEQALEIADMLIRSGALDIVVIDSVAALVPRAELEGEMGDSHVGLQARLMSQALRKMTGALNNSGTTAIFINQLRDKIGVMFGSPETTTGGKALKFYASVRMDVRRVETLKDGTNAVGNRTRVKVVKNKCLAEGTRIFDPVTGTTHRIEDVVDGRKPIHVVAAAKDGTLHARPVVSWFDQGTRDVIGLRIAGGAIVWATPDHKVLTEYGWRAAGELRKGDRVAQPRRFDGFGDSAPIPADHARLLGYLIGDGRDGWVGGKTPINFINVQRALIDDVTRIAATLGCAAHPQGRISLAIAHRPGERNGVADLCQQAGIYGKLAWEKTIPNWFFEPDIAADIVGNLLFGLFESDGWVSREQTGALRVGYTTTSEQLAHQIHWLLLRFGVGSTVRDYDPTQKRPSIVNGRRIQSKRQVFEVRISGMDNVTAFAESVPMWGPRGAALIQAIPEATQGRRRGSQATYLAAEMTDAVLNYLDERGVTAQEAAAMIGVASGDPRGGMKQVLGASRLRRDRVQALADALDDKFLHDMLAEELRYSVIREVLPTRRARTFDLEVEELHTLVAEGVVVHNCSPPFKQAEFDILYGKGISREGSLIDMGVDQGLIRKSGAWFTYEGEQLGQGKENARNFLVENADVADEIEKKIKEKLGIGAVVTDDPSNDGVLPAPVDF
Mtb bLac sens: beta-lactam sensitization of Mtb H37Rv. M. tuberculosis H37Rv growth with meropenem, percent inhibition; hits of this screen are not shown here. inhibition, % at 25 µM. actives 0.27% (n = 330,000). AID 434955;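 active = about 74% or more and at least 40 points above the plate without the antibiotic, then above 30% in a dose series; inconclusive = first-round hits that could not be retested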;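 also: growth measured after seven days incubation then overnight dye step; 0% = bacteria only wells and 100% = bacteria with antibiotic; twin plates without the antibiotic show which effects depend on it; some results filed as inactive read as strong as hits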
Arbovirus inh repeat: recorded beside Arbovirus inh, whose call it bears; inhibition, %; measured here: 10K subset replicate screen; many hits read low in the repeat;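 first of two repeat runs on a subset; 0% = infected and 100% = uninfected wells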
* = called active by the depositor; u = inconclusive; x = not tested or not shown. The list is partial (hit frequency here may not be typical).

SMILES | Arbovirus inh | Mtb growth | YopH PTP inh | RecA splice inh | Mtb bLac sens | others
CC1CCCN(C(=O)c2ccc3c(=O)n(Cc4ccc5c(c4)OCO5)c(=S)[nH]c3c2)C1 (configuration not stated) | -2 | 5% | 6 | 0.0 | 2
CN(c1ccccc1)c1nc2ccsc2c(=O)s1 | -6 | 15% | -5 | 3.1 | -12
COc1ccc(-n2c(SCC(=O)Nc3ncc(Cl)cc3Cl)nc3ccccc32)cc1 | 20 | 4% | x | 15 | -5
CN(Cc1ccccc1)C1=CC(=[N+]2CCCC2)CC(C)(C)C1 | x | -1% | x | -1.1 | -4
O=C(c1ccc(OC2CCN(Cc3ccccn3)CC2)cc1)N1CCCC(O)C1 (configuration not stated) | 7 | -2% | x | -0.1 | -7
OCC1(CCOc2ccccc2)CCN(CCCn2cccn2)CC1 | 2 | 4% | x | 2.3 | -6
O=S(=O)(c1cccc(S(=O)(=O)N2CCC(Cc3ccccc3)CC2)c1)N1CCOCC1 | -9 | -8% | 21 | 3.5 | 1
O=C(CNC(=O)c1cnccc1C(F)(F)F)c1cccc(Cl)c1 | x | 0% | x | -0.7 | 1
Cc1cccc(OCCCC(=O)Nc2nccs2)c1 | x | 0% | -31 | -0.8 | -6
COC(=O)C1CCN(CCCOc2ccc(CN3CCN(c4ccc([N+](=O)[O-])cc4)CC3)cc2)CC1 | 11 | -3% | x | 2.3 | -3
CCCNC(=O)NC(=O)CN1CCCC1c1ccc2c(c1)OCCO2 (configuration not stated) | x | x | x | -3.1 | -5
Cc1ccc(C(CNS(=O)(=O)c2ccc([N+](=O)[O-])cc2)N2CCN(C)CC2)cc1 (configuration not stated) | x | x | x | -0.3 | -2
Cc1cccc(CCNS(=O)(=O)c2ccc(S(=O)(=O)N3CCCCC3)cc2)c1 | 3 | 9% | -6 | -2.3 | -14
CCC(=O)N(C)CCc1cc2c(c(OC)c1/C=N/NS(=O)(=O)c1ccc(C)cc1)OCO2 | x | -12% | x | -4.8 | -5
CS(=O)(=O)Nc1ccc(C(=O)N2CCCCC2)cc1 | 2 | -3% | -9 | -1.8 | 12
O=C1CCc2cc(S(=O)(=O)NC(Cc3ccccc3)C(=O)NCC3CCCO3)ccc2N1 (configuration not stated) | 9 | 6% | -47 | -6.4 | 3 | Arbovirus inh repeat=4
CC(C)NC(=O)c1cc2cc([N+](=O)[O-])ccc2s1 | -1 | -6% | -34 | -0.4 | -6
CC1(C)Cc2c(cnn2-c2ccccc2)C(=O)/C1=N\NC(=O)c1ccccc1N | -3 | -6% | 0 | 0.6 | 2
Cn1nc(C(C)(C)C)cc1C(=O)NN1CCOCC1 | x | x | x | 3.6 | u
CCOc1ccc(CCNC(=O)Nc2cccc(OC)c2)cc1OCC | x | x | x | 1.0 | 5
CC1CC(C)CN(S(=O)(=O)c2ccc3c(c2)oc(=O)n3CC(=O)NCc2cccnc2)C1 (configuration not stated) | x | -2% | x | -3.6 | 0
O=C(C1CCN(S(=O)(=O)c2cccc3cccnc23)CC1)N1CCN(c2ccc(Cl)cc2)CC1 | 6 | 3% | -6 | 5.5 | 0 | Arbovirus inh repeat=10
CC(NC(=O)c1ccncc1)c1ccc(Cl)cc1Cl (configuration not stated) | x | x | x | 0.3 | 1
Cc1ccc(C)c(CNS(=O)(=O)c2c(C(=O)N3CCCC3)c(C)n(C)c2C)c1 | x | x | x | 0.1 | 2
Cc1ccccc1C(=O)Nc1cccc(N)c1 | 1 | 0% | -10 | 2.2 | -10
CCN1CCN(C(c2cccs2)C(C)NC(=O)C(C)C)CC1 (configuration not stated) | 1 | 28% | -29 | -4.0 | -1 | Arbovirus inh repeat=6
CCC(=O)Nc1ccc(C(=O)NNC(=O)Cc2ccccc2)cc1 | 4 | 6% | -15 | -1.3 | 2
O=C(N/C(=C/c1cccs1)C(=O)N1CCCCCC1)c1ccccc1 | 2 | -3% | -24 | 2.1 | 5
Cc1nn2c([nH]c(=O)c3ccccc32)c1C=O | 6 | -4% | -23 | -5.6 | -6
CC(C)CNC(=O)COC(=O)c1ccc(Cl)c(S(=O)(=O)N2CCc3ccccc32)c1 | 11 | 1% | x | -2.5 | 0
CCN1C(=O)C2(SC(NC(C)=O)=NN2C(C)=O)c2cc(C)cc(C)c21 (configuration not stated) | 5 | 1% | -28 | -3.2 | -5
CCOC(=O)N1CCN(C(=O)Nc2ccccc2)CC1 | 0 | -4% | x | -1.9 | 0
COCCNC(=S)N/N=C/c1ccccc1C(=O)O | -4 | -4% | -4 | -6.6 | -3
O=C(/C=C/c1ccccc1[N+](=O)[O-])NCC1CCCO1 (configuration not stated) | -2 | 2% | -17 | -0.8 | -1
O=C1CCC(C(=O)NCc2cccnc2)N1 (configuration not stated) | 6 | -5% | -15 | -2.8 | -2
O=C1CN(C(=O)c2cc3ccccc3o2)c2ccccc2N1 | -6 | 4% | 20 | -0.4 | 14
O=S(=O)(CCN1C=CC(C(F)(F)F)=NCC1)c1ccc(F)cc1 | x | -2% | x | -0.4 | -5
N#Cc1cnn(-c2ccccc2)c1N | 4 | -5% | -39 | 2.8 | -4
CCOCCCNC(=S)Nc1ccc2nc(N3CCCC3)cc(C)c2c1 | 9 | -1% | -14 | -2.0 | -8
CCOC(=O)C1CCN(C2CC(=O)N(c3cccc(Cl)c3)C2=O)CC1 (configuration not stated) | 1 | -20% | -25 | 5.8 | -2
CCOC(=O)c1csc(NC(=O)c2ccc(OCC)cc2)n1 | 6 | 6% | x | 0.0 | 78
COc1ccc(C(=O)Nc2ccccc2C(=O)N2CCOCC2)cc1 | x | x | x | 0.0 | 4
COc1cccc(CNC(=O)C2CCN(C(=O)N3CC(C)Oc4ccccc43)CC2)c1 (configuration not stated) | x | x | x | -5.9 | 0
CCCCCCCCNC(C)C(O)c1ccc(SC(C)C)cc1 (configuration not stated) | -44 | u | 3 | 4.9 | 100
COCCN(C(=O)COc1ccccc1)c1nnc(-c2cccnc2)s1 | -2 | 6% | -33 | -2.7 | -1
Cc1sc(N2C(=O)C3C(C2=O)[C@H]2C=C[C@@H]3C2)c(C#N)c1C (some centres not stated) | x | -6% | x | -2.2 | -7
O=[N+]([O-])c1ccc(N/N=C/c2c[nH]c3ccccc23)cc1 | -17 | u | -15 | -4.3 | 56
COc1ccccc1/C=C/CN1CCC(n2nccc2NC(=O)CCc2ccccc2)CC1 | x | x | x | 3.1 | 9
CCOc1ccc(C(=O)COC(=O)c2cc(=O)[nH]c3ccccc23)cc1 | x | x | x | -10 | -1
C=C(C)C(=O)Nc1ccc(NC(C)C)cc1 | x | -3% | x | -4.1 | 6
CN1CCN(c2ccc(S(=O)(=O)N3CCCCC3)cc2NC(=O)COc2ccc([N+](=O)[O-])cc2)CC1 | x | x | x | 0.3 | 5
CCc1noc(C)c1C(=O)N1CCCSC1=Nc1ccccc1 | x | x | x | 2.7 | 3
Cc1ccc(S(=O)(=O)NCCNc2ccccc2[N+](=O)[O-])cc1 | 5 | 15% | x | 1.8 | -5
O=C(O)c1[nH]c2ccccc2c1CC(=O)N1CCOCC1 | 9 | -9% | -50 | -2.2 | 0
O=[P+](Cc1ccccc1)Cc1ccccc1 | 2 | -9% | -24 | 1.7 | -4
Cc1ccn2c(C(=O)N/N=C/c3ccc(CNC(=O)C(=O)Nc4ccc(C)c(C)c4)o3)c(C)nc2c1 | -5 | 0% | -14 | 0.9 | -4
O=C(COC(=O)c1ccc(OC(F)F)cc1)NCCCN1CCCC1=O | x | -9% | x | -0.7 | 0
O=C(CSc1ccc(-c2ccncc2)nn1)c1ccccc1 | -8 | -6% | x | -0.9 | -6
COc1ccc(C2(CNC(=O)c3ccc(OC)c([N+](=O)[O-])c3)CCCCC2)cc1OC | -2 | 9% | -34 | -1.2 | 11
CC(C)NC(=O)CN1CCN(c2ncccn2)CC1 | 8 | -3% | -45 | -0.8 | 0

Three entries from above, sorted by length of the SMILES, rising:
SMILES | Arbovirus inh | Mtb growth | YopH PTP inh | RecA splice inh | Mtb bLac sens | others
O=[P+](Cc1ccccc1)Cc1ccccc1 | 2 | -9% | -24 | 1.7 | -4
C=C(C)C(=O)Nc1ccc(NC(C)C)cc1 | x | -3% | x | -4.1 | 6
O=C(O)c1[nH]c2ccccc2c1CC(=O)N1CCOCC1 | 9 | -9% | -50 | -2.2 | 0

Next records.
SMILES | Arbovirus inh | Mtb growth | YopH PTP inh | RecA splice inh | Mtb bLac sens | others
CCCCn1c(SCC(=O)Nc2cc(C)on2)nc2ccccc2c1=O | -6 | -1% | -31 | x | -3
COc1ccc(N2C(=O)CC(NC34CC5CC(CC(C5)C3)C4)C2=O)c(OC)c1 (configuration not stated) | -5 | -6% | 12 | 1.4 | 8
COc1ccc(NC(=O)COC(=O)/C=C/c2ccccc2[N+](=O)[O-])cc1 | -2 | -2% | -25 | 8.5 | -1
COc1ccc(NC(=O)C2CCN(S(=O)(=O)c3cccc4nonc34)CC2)cc1OC | x | x | x | 0.4 | 0
OCCOCCn1c(-c2ccccc2)nc(=S)c2c1CCCC2 | -3 | 3% | -43 | 12 | 1 | Arbovirus inh repeat=4
O/N=C(\C[n+]1ccccc1)c1ccc(Br)cc1 | x | x | x | -1.1 | -2
CCC(C)C(NC(=O)OC(C)(C)C)C(=O)NC(C(=O)NC(C)C(N)=O)C(C)C (configuration not stated) | 1 | -5% | x | 2.2 | 3
N#Cc1ccccc1OCC(=O)Nc1c(C(=O)C2CC2)oc2ccccc12 | -9 | -1% | -31 | x | 71
COc1cc(CC(=O)OCC(=O)Nc2ccc3c(c2)OCCO3)cc(OC)c1OC | 1 | 0% | -23 | 7.0 | 0
COCCCNCCCCOc1ccc(C)cc1[N+](=O)[O-] | -4 | -8% | -24 | 0.7 | 5
COc1ccc(S(=O)(=O)NCC(c2cccnc2)N2CCN(C)CC2)cc1OC (configuration not stated) | x | x | x | 1.1 | -4
COc1cccc(CN2CCNC(=O)C2CC(=O)N(C)C2CCCCC2)c1 (configuration not stated) | x | x | x | 0.2 | 10
Cc1cc(Cl)c(S(=O)(=O)N2CCN(c3ccc(F)cc3)CC2)cc1OCC(=O)NC1CCCCC1 | -6 | 5% | 4 | 0.6 | 11
C=CCn1c(-c2ccc(OC)c(OC)c2)cs/c1=N\c1ccccn1 | 8 | 2% | 4 | -0.1 | 18
CCCCn1c(O)c(C(CC)=NCCc2ccccc2)c(=O)[nH]c1=O | -8 | 4% | -24 | 1.0 | 2

Quoted at random: 5 entries already listed, in no set order.
SMILES | Arbovirus inh | Mtb growth | YopH PTP inh | RecA splice inh | Mtb bLac sens | others
COc1ccc(N2C(=O)CC(NC34CC5CC(CC(C5)C3)C4)C2=O)c(OC)c1 (configuration not stated) | -5 | -6% | 12 | 1.4 | 8
C=CCn1c(-c2ccc(OC)c(OC)c2)cs/c1=N\c1ccccn1 | 8 | 2% | 4 | -0.1 | 18
CCCCn1c(SCC(=O)Nc2cc(C)on2)nc2ccccc2c1=O | -6 | -1% | -31 | x | -3
COc1ccc(S(=O)(=O)NCC(c2cccnc2)N2CCN(C)CC2)cc1OC (configuration not stated) | x | x | x | 1.1 | -4
CCC(C)C(NC(=O)OC(C)(C)C)C(=O)NC(C(=O)NC(C)C(N)=O)C(C)C (configuration not stated) | 1 | -5% | x | 2.2 | 3

(cont.)
SMILES | Arbovirus inh | Mtb growth | YopH PTP inh | RecA splice inh | Mtb bLac sens | others
O=C(NCc1cc(C(F)(F)F)cc(C(F)(F)F)c1)C12CN(Cc3ccccc3)CC1C(c1cccc([N+](=O)[O-])c1)=NO2 (configuration not stated) | 11 | -7% | -35 | -2.6 | -6
O=C(CSc1oc(-c2ccccc2)nc1S(=O)(=O)c1ccccc1)NCC1CCCO1 (configuration not stated) | x | x | x | -0.5 | -11
Cc1cccc(NCC(=O)N/N=C\c2ccc[nH]2)c1 | x | 0% | x | 0.1 | 2
O=S(=O)(NCCCc1ccccc1)c1cccc2nsnc12 | 9 | 4% | -35 | 4.5 | 2
CCNC(=S)N/N=C/c1cc(C)n(-c2ccc(Cl)cc2)c1C | 1 | 2% | x | 8.5 | -5
CN(C(=O)COC(=O)c1cc2c(s1)CCCCC2)C1CCS(=O)(=O)C1 (configuration not stated) | x | x | x | -3.0 | -6
CC(=O)c1ccc(N(C(=O)CNC(=O)c2ccco2)C(C(=O)NC2CCCC2)c2cccnc2)cc1 (configuration not stated) | x | x | x | -2.0 | 0
COc1ccc(CN2CCN(C(=O)CCC(=O)Nc3nnc(CC(C)C)s3)CC2)cc1F | x | x | x | -2.1 | -6
CC1(C)CC(=O)CC(=NCC(=O)O)C1 | 5 | 6% | -24 | -3.2 | -2
Cc1cc(/C=N/n2cnnc2)c(C)n1-c1cccc(Cl)c1 | -15 | x | -13 | 1.8 | 16 | Arbovirus inh repeat=-17
Cc1cc(C(=O)N2CCCc3ccccc32)no1 | 2 | 0% | -13 | -1.6 | 4
C=CCOc1ccc(/C=C/C(=O)OCC(=O)NCc2ccco2)cc1 | x | x | x | 0.4 | -4

From PubChem BioAssay
